High-throughput results deposited in PubChem BioAssay by The Scripps Research Institute Molecular Screening Center.
OX1R antag = OX1R (human) antagonism; inhibition, % at 6.6 µM; O43613; OX1R-expressing cells, FRET antagonist read-out; hit rate 1.8% among 330,000; AID 485270; in the data active = inhibition mostly above about 38%, no sharp cut-off; inactive = mostly below about 40%;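 also: 0% = agonist challenge alone and 100% = reference antagonist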
Target sequence (O43613 whole entry, looked up): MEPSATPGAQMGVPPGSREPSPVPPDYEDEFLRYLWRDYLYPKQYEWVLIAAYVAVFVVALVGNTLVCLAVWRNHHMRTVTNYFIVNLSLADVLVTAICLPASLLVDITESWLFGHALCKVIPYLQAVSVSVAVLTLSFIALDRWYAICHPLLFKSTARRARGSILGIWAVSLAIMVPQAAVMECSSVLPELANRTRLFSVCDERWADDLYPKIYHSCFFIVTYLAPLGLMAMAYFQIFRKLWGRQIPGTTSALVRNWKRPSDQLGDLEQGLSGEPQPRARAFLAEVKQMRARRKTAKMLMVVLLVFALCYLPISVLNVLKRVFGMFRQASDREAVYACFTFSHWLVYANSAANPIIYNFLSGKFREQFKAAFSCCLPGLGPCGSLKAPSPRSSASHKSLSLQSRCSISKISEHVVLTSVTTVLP
* = called active by the depositor. The list is partial; most or all hits stand in other tables.

no.	molecule	OX1R antag
1	O=C(Cn1cnc2c(nnn2Cc2ccccc2)c1=O)NCc1ccco1	-2.9
2	O=C(NC1CCCCC1)C(c1ccc(F)cc1)N(CCN1CCOCC1)C(=O)c1ccc(-c2ccccc2)[nH]1 (configuration not stated)	10.9
3	Fc1cc(F)cc(NC(=S)N2CCN(c3ncccn3)CC2)c1	11.5
4	O=C(c1ccccc1)c1sc(N2CCOCC2)nc1-c1ccccc1	11.9
5	O=C(CSc1nnc(NC(=O)C2CC2)s1)Nc1ccccc1C(F)(F)F	-0.6
6	COc1ccc2c(c1)-c1nc(NC(=O)c3cccs3)sc1CC2	17.8
7	C#CCOn1c(-n2nc(C)cc2C)nc2ccccc2c1=O	15.7
8	Cc1c(C)c2ccc(OCC(=O)NCCc3c[nH]c4ccccc34)c(C)c2oc1=O	41.5

Looked up by compound from the list above (2):
no.	molecule	OX1R antag
6	COc1ccc2c(c1)-c1nc(NC(=O)c3cccs3)sc1CC2	17.8
1	O=C(Cn1cnc2c(nnn2Cc2ccccc2)c1=O)NCc1ccco1	-2.9

(more compounds)
no.	molecule	OX1R antag
9	Cc1noc(C)c1S(=O)(=O)NC1CCCc2ccccc21 (configuration not stated)	35.1
10	O=C(NCCS(=O)(=O)N1CCN(c2ccccc2F)CC1)c1c(F)cccc1F	20.7
11	CC(C)(C)c1ccc(NC(=O)Nc2ccc3ccccc3n2)cc1	8.5
12	C[C@]1(C(=O)O)Cc2oncc2C[C@@H]1C(=O)O	17.8
13	Cc1ccc(O)c(N=Cc2cccs2)c1	41.6
14	CN(C)C(=O)CSc1nnc(-c2cccnc2)n1-c1ccccc1	13.1
15	O=C(/C=C/c1cccc([N+](=O)[O-])c1)NCCSCc1ccco1	17.3
16	O=C(CN1CCCN(S(=O)(=O)c2ccc(F)cc2)CC1)Nc1ccccc1Br	37.5
17	Cc1ccccc1-n1nc(C)c(N=O)c1N	47.9
18	C/C(=N\NC(=S)Nc1ccc(C)cc1)c1cc2ccccc2o1	5.5
19	Cc1onc(-c2ccccc2Cl)c1C(=O)NCC1CCCO1 (configuration not stated)	3.7
20	Oc1c(CN2CCOCC2)cc(COCc2ccccc2)c2cccnc12	8.0
21	CCCC(=O)Nc1cc(C)c(NC(=O)Cc2ccccc2)cn1	3.6
22	CCN(CC)c1ccc(NS(=O)(=O)c2ccc(-c3ccc(=O)[nH]n3)o2)c(C)c1	31.9
23	Cc1ccc(S(=O)(=O)N2CCN(C(=O)COC(=O)c3ccc(Br)o3)CC2)c(C)c1	10.2
24	COCc1cc(C)nc(N/N=C/c2ccc(-c3cc(C(=O)O)ccc3Cl)o2)c1C#N	7.3
25	CC(=O)N1CCSc2ccc(S(=O)(=O)Nc3ccc(C)cc3)cc21	26.6
26	CCN(CCO)C(=S)Nc1cc(S(=O)(=O)N(C)C)ccc1C	10.3
27	CC(=O)Nc1nc(-c2cccc3ccccc23)cs1	21.0
28	O=C(COc1ccccc1)Nc1nc(-c2ccncc2)cs1	8.2
29	O=C(Nc1sccc1C(=O)NCc1ccco1)c1cccnc1	4.6
30	O=c1oc2ccccc2c(Nc2ccc3ccccc3c2)c1[N+](=O)[O-]	26.6
31	Cc1cc(NC(=O)c2ccc(S(=O)(=O)N3CCOCC3)cc2)nc2c1c(=O)oc1ccccc12	23.0
32	CC(=O)Nc1ccc(OC(=O)c2cccnc2)cc1	13.9
33	CC(CSc1nnnn1-c1ccccc1)Cn1c(N2CCN(C)CC2)nc2c1c(=O)[nH]c(=O)n2C (configuration not stated)	12.7
34	CCc1cc(=O)oc2c(C)c(OCC(=O)NCCCn3ccnc3)ccc12	3.3
35	Cc1ccc(-c2csc3ncnc(NCCC(=O)O)c23)cc1C	4.8
36	NC(=O)c1sc2nc(N3CCCCC3)c3c(c2c1N)CCCC3	11.8
37	CCOC(=O)C1CCCCN1C(=O)CCn1nnnc1CN1CCOCC1 (configuration not stated)	0.3
38	CN1CCN(c2ccc(C(CC(N)=O)NC(=O)Cc3cccc4ccccc34)cc2[N+](=O)[O-])CC1 (configuration not stated)	6.6
39	Cc1ccc(C)c(NC(=O)C2CCCN(c3cnccn3)C2)c1 (configuration not stated)	-0.5
40	Cc1c(C#N)c(=O)c(-[n+]2ccccc2)c([S-])n1-c1ccc(Cl)cc1	17.1
41	COc1ccc(C(=O)/C=C/c2ccccc2OC)c(OC(=O)c2ccc([N+](=O)[O-])cc2)c1	29.6
42	Cc1oc(-c2ccc(Cl)cc2)nc1CN1CCCC(C(=O)N2CCOCC2)C1 (configuration not stated)	10.3
43	CCOC(=O)CCCSc1nc(-c2ccc3c(c2)OCO3)cc(C(F)(F)F)c1C#N	40.1
44	Cc1cc(Cl)ccc1Oc1cccc(C(=O)/C(C#N)=C/N(C)C)c1	21.6
45	CNC(=S)Nc1ccc2nc(C)oc2c1	25.5
46	CCc1ccc(/C=N/NC(=O)c2cc(-c3ccccc3OC)nc3ccccc23)s1	19.6
47	COc1cc(C(=O)NCCC2=CCCCC2)cc(OC)c1OC	12.3
48	O=C(Oc1cccc(Cl)c1)N1CCOCC1	-0.4
49	COc1cc(OC)cc(C(=O)NCc2ccc3c(c2)OCO3)c1	-4.8
50	COCCn1c(SCC(=O)NC(C)c2ccccc2)nc2ccccc21 (configuration not stated)	44.8
51	Cc1ccc(CNC(=O)CSc2c3c(nc4ccc(Cl)cc24)CCCC3)o1	27.8
52	CC(C)(C)NC(=O)Nc1cccc(Cl)c1Cl	8.0
53	Cc1oc(-c2cccc3ccccc23)nc1CN1CCC[C@H]1CO	2.0
54	CCOC(=O)c1sc(Nc2nc(OC)cc(OC)n2)nc1C	40.9
55	COc1ccc(CCNC(=S)NC(=O)c2ccccc2)cc1C	23.0
56	CC1=CS/C(=C(/C#N)C(=O)NCc2ccco2)N1c1ccccc1	0.9
57	Cc1nn(Cc2c(F)c(F)c(F)c(F)c2F)c(C)c1NC(=O)c1nn(C)cc1[N+](=O)[O-]	14.5
58	COc1ccc(CCNC(=O)COc2cc(C)cc3oc(=O)cc(C)c23)cc1OC	8.7
59	Cc1ccc(S(=O)(=O)CCc2nnc(NC(=O)c3ccccn3)s2)cc1	22.0
60	Cc1cc(NC(=O)CCSc2ccccc2)no1	10.6
61	Clc1cc(NCc2ccccc2)ncn1	27.8
62	Cc1c(C(=O)OC(C)CCN(C)C)oc2ccccc12 (configuration not stated)	36.4
63	COc1ccc(OCC(=O)Nc2ccc(S(=O)(=O)N3CCN(C)CC3)cc2)cc1	11.3
64	CCc1ccc(OCCNC(=O)c2ccco2)cc1	8.5

Structural class, the entries above containing bromine.
no.	molecule	OX1R antag
16	O=C(CN1CCCN(S(=O)(=O)c2ccc(F)cc2)CC1)Nc1ccccc1Br	37.5
23	Cc1ccc(S(=O)(=O)N2CCN(C(=O)COC(=O)c3ccc(Br)o3)CC2)c(C)c1	10.2

(list continues)
no.	molecule	OX1R antag
65	CC1CN(C(=O)c2cccc(S(=O)(=O)Nc3ccccc3Cl)c2)CC(C)O1 (configuration not stated)	9.7
66	COc1cccc(CC(=O)n2nc(N)c3cc4ccc(OC)cc4nc32)c1	13.3
67	Cc1cccc(C)c1NS(=O)(=O)c1c(C(=O)N2CCCCC2)c(C)n(C)c1C	15.3
68	CCc1ccccc1N1CCN(S(=O)(=O)c2ccc(F)c(C)c2)CC1	10.6
69	CC(=O)c1nn(-c2ccc(Cl)cc2)cc1C(=O)c1ccccc1	3.5
70	COc1ccccc1N/C(=N/S(=O)(=O)c1ccc(C)cc1)c1ccccc1	6.7
71	COc1cccc2cc(C(=O)C3=C(O)C(=O)N(CCN4CCOCC4)C3c3ccc(Cl)cc3)oc12 (configuration not stated)	2.6
72	COC(=O)C(C)Oc1ccc2cc(-c3ccccc3)c(=O)oc2c1 (configuration not stated)	15.5
73	N#Cc1nc(COc2ccccc2Cl)oc1NCc1cccnc1	16.1
74	O=C(NCc1cccnc1)c1nc(-c2ccccc2)n(-c2ccccc2)n1	8.0
75	COC(=O)/C(=C1/Oc2ccc(C(C)(C)C)cc2S1)C(F)(F)F	9.2
76	CC12CCC(C(=O)Nc3ccccc3)(C(Br)C1=O)C2(C)C (configuration not stated)	12.9
77	O=C(CSc1ccc2nnc(-c3ccncc3)n2n1)NCc1ccco1	10.2
78	CCC(C)NC(=O)c1ccc(CS(=O)(=O)c2ccc(OC)cc2)o1 (configuration not stated)	4.0
79	Cn1nc2c3ccccc3n(Cc3ccc(F)cc3)c2nc1=S	-0.6
80	COC(=O)CC1=NN(c2nc3ccccc3s2)C(=O)/C1=C/N(C)C	12.4
81	Cc1ccc(C)c(NC(=O)CSc2cccc3cccnc23)c1	11.7
82	O=S(=O)(Nc1ccccn1)c1cccc(S(=O)(=O)c2ccc(Cl)cc2)c1	18.2
83	CCOC(=O)c1sc(C)c2c1NC(C)(c1ccccc1)NC2=O (configuration not stated)	-3.2
84	O=C(CCCN1C(=O)/C(=C/c2ccc3c(c2)OCO3)SC1=S)Nc1ccc(C(=O)O)cc1	21.0
85	CN1CCc2nc(SCc3ccc(C(C)(C)C)cc3)c(C#N)cc2C1	0.4
86	CC(C)[C@H](NC(=O)N1CCn2c1nc1ccccc12)C(=O)N[C@@H](Cc1ccccc1)C(=O)O	13.8
87	COc1ccc(C(=O)/C=C(\C)Nc2ccc3c(c2)OCO3)cc1	8.9
88	Cc1ccc(SCC(=O)NC(=O)c2ccc(S(=O)(=O)N(C)C)cc2)cc1C	7.2
89	COc1cc(C(=O)N2CCN(CC(O)COc3ccccc3)CC2)cc(OC)c1OC (configuration not stated)	12.7
90	Cc1ccc(NCCC(=O)c2cccs2)cc1	16.7
91	COC(=O)c1ccc(C(=O)OC)c(NC(=O)COC(=O)CC2CC3CCC2C3)c1 (configuration not stated)	5.1
92	Cc1nn(-c2cc(N3CCCCC3)ccc2[N+](=O)[O-])c(=O)c2ccccc12	12.7
93	Cc1cc(OCC(=O)N2CCC[C@@H]2C(=O)O)c2c(C)c(C)c(=O)oc2c1	5.9
94	CS(=O)(=O)c1sc2nc(-c3cccs3)cc(-c3ccccc3)c2c1N	13.3
95	COc1ccc(/C=C(\NC(=O)c2cccs2)C(=O)NC(C)(C)C)cc1OC	-7.8
96	C/C(=C\c1ccccc1)C(=O)Nc1cc(C)on1	15.8
97	CCCCCC(=O)NC(=S)Nc1ccc(Br)cc1C	4.3
98	CC(=O)c1cccc(NC(=O)CNC(=O)Cc2ccccc2)c1	11.3
99	Cc1ccc(S(=O)(=O)Cn2nnnc2C(C(C)C)N2CCSCC2)cc1 (configuration not stated)	-2.8
100	CCOc1ccc(-c2ccc(SCC)nn2)cc1	16.9
101	COc1ccc(C(=O)N2CCN(Cc3cc(OC)c(O)c(OC)c3)CC2)cc1OC	-1.2
102	Cc1cc(C)nc(NC(=O)/C=C/c2ccc(Cl)cc2)n1	38.6
103	CCC(C)N1C(=O)N(C)C2NC(=O)NC21 (configuration not stated)	4.1
104	COc1ccc(NS(=O)(=O)c2cccc(NC(=O)NC3CCCCC3)c2)cc1	6.8
105	Cc1nn(-c2ccccc2)c(N2CCCC2)c1/C=C1\N=C(c2ccc(F)cc2)OC1=O	7.2
106	CC1CC(C)CN(C(=O)CN(C)S(=O)(=O)c2ccc3c(c2)c(=O)n(C)c(=O)n3C)C1 (configuration not stated)	0.7
107	COC(=O)c1sccc1NC(=O)c1ccc(OC)c([N+](=O)[O-])c1	-3.3
108	NC(=O)C1CCN(C(=O)c2cc(S(=O)(=O)N3CCOCC3)c(Cl)cc2Cl)CC1	5.4
109	Cc1cc(N2CCOCC2)nc(-c2ccc([N+](=O)[O-])cc2)n1	19.9
110	Cc1cc(C)n(-c2ccc(C(=O)NC(C)C)cc2)n1	-6.6
111	O=C(Nc1n[nH]c(C2CCCCC2)n1)C1CCCCC1	5.2
112	C=CCc1ccccc1OCC(O)CN1CCN(c2ccccc2F)CC1 (configuration not stated)	8.5
113	CCNc1ccc(C2(O)C(=O)c3ccccc3C2=O)cc1	29.0
114	C#CCn1cc(/C=C2\NC(=O)NC2=O)c2ccccc21	-1.9
115	CCOC(=O)CCC(NC(=O)c1ccc(NCN2C(=O)CCC2=O)cc1)C(=O)OCC (configuration not stated)	4.3
116	COc1ccc(NC(=S)N2CCN(C/C=C/c3ccccc3)CC2)cc1OC	6.5
117	CN(Cc1ccccc1F)C(=O)c1ccccc1Sc1ccccc1C#N	26.2
118	O=C(O)c1ccc(COc2ccccc2[N+](=O)[O-])o1	19.5
119	CCOC(=O)C1(CCCc2ccccc2)CCN(C(=O)C(C)n2cncn2)CC1 (configuration not stated)	0.6
120	CC(C)OP(=O)(OC(C)C)C(Nc1ccccn1)c1ccc(F)cc1 (configuration not stated)	15.5

Other results:
no.	molecule	OX1R antag
121	CCn1c(=O)cc(SCC(=O)NCC2CCCO2)c2ccccc21 (configuration not stated)	0.3
122	O=C(/C=C\Nc1ccc2c(c1)OCO2)c1cccs1	6.8
123	CCn1c(SCC(=O)Nc2ccc3c(c2)OCO3)nnc1C1CC1	8.9
124	O=c1[nH]c(CN2CCN(S(=O)(=O)/C=C/c3ccccc3)CC2)nc2cc(Cl)ccc12	17.7
125	COc1ccccc1N(CC(=O)NCCSCc1cccc(Cl)c1)S(C)(=O)=O	2.2
126	CCOC(=O)C1=C(C)NC(C)=C(C(=O)OCC)C1c1cc(N)ccc1OC(F)F	23.7
127	Cc1ccc(-c2nc3cc(N)ccc3o2)cc1	8.5
128	O=C1CCCCC1Sc1ccc(Cl)cc1[N+](=O)[O-] (configuration not stated)	0.5
129	COc1ccccc1N1CCN(C(=O)Cn2cnc3c2c(=O)n(C)c(=O)n3C)CC1	4.1
130	COc1cccc(-c2cc(C(F)(F)F)nc(-n3cc(C)cn3)n2)c1	5.0
131	C=CCNC(=O)/C(=C\c1cccc([N+](=O)[O-])c1)NC(=O)c1ccccc1	41.9
132	O=C(N/N=C/c1ccco1)c1cccc(NC(=O)c2ccccc2Cl)c1	7.5
133	O=C(/C=C/c1cccnc1)c1ccc([N+](=O)[O-])cc1	62.2
134	CCN(CC)C(=S)SCC(=O)Nc1ncc2c(n1)CCCC2=O	10.1
135	CCOCc1[nH]c(=S)[nH]c(=O)c1Cc1ccc(OC(C)C)cc1	8.5
136	COc1ccc(N=NC2C(=O)N(c3ccccc3)N=C2C)cc1 (configuration not stated)	-0.1
